# Vaccinia stage: blocks a specific stage of Vaccinia orthopoxvirus infection. Vaccinia-infected cells, mCherry/Venus stage reporter fluorescence; hits give low values; some inactives read as strong as hits. activity change (mCherry), % (test concentration not listed). actives 0.01% (n = 89,000);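 active = mCherry past -33% and 40 or more points under the early reporter, replicates agreeing; inconclusive = past -33% without that gap or agreement; tested in A549 cells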;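 also: scaled between vehicle wells and reference inhibitor wells; 23 nL library stock went into each well; one replicate is shown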
# Vaccinia stage Venus: also measured in Vaccinia stage; calls as there; activity change (Venus), %; measured here: Venus reporter, other viral stage;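 negative = less Venus signal; first of two replicates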
# * = called active by the depositor; ? = inconclusive; . = not tested or not shown. Some of the compounds tested. The share of hits here may be higher or lower than overall.
SMILES,Vaccinia stage,Vaccinia stage Venus
O=C(C[C@H]1C[C@@H]2c3cc(NC(=O)C4CCC4)ccc3O[C@@H]2[C@H](CO)O1)NCc1cc(F)ccc1F,8,8
COc1ccc(S(=O)(=O)Nc2ccc3c(c2)C(=O)N([C@@H](C)CO)C[C@@H](C)[C@@H](CN(C)S(=O)(=O)c2c(C)noc2C)O3)cc1,-13,-9
COc1ccccc1-c1ccc2c(c1)O[C@@H](CN(C)C)[C@H](C)CN([C@@H](C)CO)S2(=O)=O,-2,-11
CN(C)C(=O)c1cccc(-c2ccc([C@H]3[C@H]4CN(Cc5cccnc5)CCCCN4[C@H]3CO)cc2)c1,19,5
COCCNC(=O)C[C@H]1C[C@H]2c3cc(NC(=O)C4CCOCC4)ccc3O[C@H]2[C@H](CO)O1,-2,-2
CC(C)NC(=O)Nc1ccc2c(c1)CC(=O)N([C@@H](C)CO)C[C@@H](C)[C@@H](CN(C)C(=O)Nc1ccc(F)cc1)O2,21,13
C[C@H]1CN([C@@H](C)CO)C(=O)c2cccc(NS(C)(=O)=O)c2O[C@@H]1CN(C)S(=O)(=O)c1ccccc1,10,8
C[C@@H]1CN([C@H](C)CO)C(=O)c2c(c3ccccc3n2C)-c2ccccc2CO[C@H]1CN(C)C(=O)[C@H](Cc1ccccc1)N(C)C,?,.
C[C@H](CO)N1C[C@H](C)[C@@H](CN(C)Cc2ccccc2)Oc2ccc(NS(=O)(=O)c3ccccc3)cc2C1=O,13,7
COc1ccc(COC[C@]23N=C4Sc5ccc([N+](=O)[O-])cc5C(=O)N4[C@H](c4ccccc4O2)[C@H]3CO[Si](C)(C)C(C)(C)C)cc1,2,-7
COc1ccc(-c2cn(CC[C@H]3CC[C@@H](N)[C@H](CO)O3)nn2)cc1,-1,6
O=C([C@@H]1[C@@H](CO)[C@@H]2Cn3c(cccc3=O)[C@H]1N2)N1CCc2ccccc2C1,2,6
C[C@@H]1CN([C@H](C)CO)C(=O)Cc2cc(NS(C)(=O)=O)ccc2O[C@@H]1CN(C)S(C)(=O)=O,13,22
C[C@@H]1CN([C@H](C)CO)C(=O)c2cc(NC(=O)C3CCCCC3)ccc2O[C@@H](C)CCCCO[C@@H]1CN(C)C(=O)c1ccccc1,19,4
C[C@@H]1CN([C@@H](C)CO)C(=O)Cc2cc(NS(=O)(=O)c3ccc(Cl)cc3)ccc2O[C@@H]1CN(C)S(=O)(=O)c1cn(C)cn1,2,7
COc1ccc(CN(C)C[C@H]2Oc3ccc(NC(=O)NC(C)C)cc3CC(=O)N([C@@H](C)CO)C[C@H]2C)cc1,8,-12
CS(=O)(=O)N1[C@H](C#N)[C@H](c2ccccc2)[C@@H]1CO,6,7
COc1ccc2c3c(n(C)c2c1)[C@@H](CO)N(C(=O)Cc1ccccn1)CC31CCN(Cc2ccccn2)CC1,0,0
CCNC(=O)[C@@H]1[C@@H](CO)[C@@H]2Cn3c(ccc(-c4cccnc4)c3=O)[C@@H]2N1Cc1ccccc1,-5,2
C[C@@H]1CN([C@H](C)CO)C(=O)c2cc(C#CC3CC3)cnc2O[C@@H]1CN(C)C(=O)Cc1ccccn1,17,6
CC(C)CC#Cc1cnc2c(c1)C(=O)N([C@@H](C)CO)C[C@@H](C)[C@H](CN(C)Cc1ccccn1)O2,-3,-14
COCCOC(=O)N1C(=O)[C@@]2(c3ccccc31)[C@H](C(=O)N1CCN(c3ncccn3)CC1)[C@H]1C(=O)O[C@H](c3ccccc3)[C@H](c3ccccc3)N1[C@@H]2c1ccccc1OCCO,-19,-16
C[C@@H]1CN([C@H](C)CO)C(=O)c2ccccc2-c2ccccc2CO[C@@H]1CN(C)Cc1cccc(C(=O)O)c1,17,2
COC(=O)C[C@@H]1C[C@H]2c3cc(NS(=O)(=O)c4ccc(F)cc4)ccc3O[C@H]2[C@H](CO)O1,4,2
COCC#Cc1ccc([C@H]2[C@H](CO)N3C(=O)CN(C(=O)C4CC4)C[C@@H]23)cc1,-1,0
CCCN1[C@@H]2Cn3c(ccc(-c4ccccc4F)c3=O)[C@H]1[C@@H](C(=O)NCCOC)[C@@H]2CO,13,11
CN(C)C(=O)C[C@H]1C[C@@H]2c3cc(NC(=O)C4CCOCC4)ccc3O[C@@H]2[C@H](CO)O1,6,7
CC(C)C#Cc1ccc2c(c1)O[C@@H](CN(C)Cc1ccccn1)[C@H](C)CN([C@H](C)CO)S2(=O)=O,-23,-15
Cc1noc(C)c1NC(=O)Nc1cccc2c1O[C@H](CN(C)CC1CCCCC1)[C@H](C)CN([C@H](C)CO)C2=O,10,15
C[C@H](CO)N1C[C@H](C)[C@@H](CN(C)CC2CCCCC2)Oc2ccc(NC(=O)Nc3ccc4c(c3)OCO4)cc2C1=O,-13,-6
CC(C)NC(=O)N(C)C[C@@H]1OCCCC[C@@H](C)Oc2ccc(NS(=O)(=O)c3ccc(F)cc3)cc2C(=O)N([C@@H](C)CO)C[C@H]1C,20,10
O=C(C[C@H]1CC[C@@H]2[C@H](COC[C@@H](O)CN2S(=O)(=O)c2cccc(Cl)c2)O1)N1CCOCC1,19,11
Cc1ccccc1S(=O)(=O)N1CC[C@H]2[C@H](CO)Nc3ccc(-c4ccc(C#N)cc4)cc3[C@H]21,-18,-12
O=C(C[C@@H]1CC[C@@H]2[C@H](COC[C@H](O)CN2S(=O)(=O)c2ccccc2)O1)NCc1ccc(-c2ccccc2)cc1,?,.
O=C(NC1CCCC1)N[C@@H]1C=C[C@H](CC(=O)N2CCOCC2)O[C@@H]1CO,-11,12
C[C@@H]1CCCCO[C@H](CN(C)Cc2ccc(C(F)(F)F)cc2)[C@H](C)CN([C@H](C)CO)C(=O)c2cc(NS(=O)(=O)c3ccccc3)ccc2O1,?,.
C[C@@H]1CN([C@@H](C)CO)C(=O)c2cc(NC(=O)Cn3cnnn3)ccc2O[C@H]1CN(C)S(=O)(=O)c1ccc(F)cc1,-8,10
C[C@H](CO)N1C[C@H](C)[C@H](CN(C)C(=O)CCCN(C)C)OCCCC[C@H](C)Oc2ccc(NS(=O)(=O)c3cccs3)cc2C1=O,23,10
N#C[C@@H]1[C@@H](c2ccc(C#CC3CC3)cc2)[C@H](CO)N1S(=O)(=O)c1ccccc1,-8,-8
Cc1noc(C)c1NC(=O)Nc1ccc2c(c1)CC(=O)N([C@@H](C)CO)C[C@@H](C)[C@@H](CN(C)Cc1ccc(C(F)(F)F)cc1)O2,-1,-1
O=C(C[C@H]1CC[C@H](NC(=O)c2cnccn2)[C@H](CO)O1)NCc1ccccc1F,-16,-20
C[C@H](CO)N1C[C@H](C)[C@H](CN(C)CC2CCCCC2)Oc2ccc(NC(=O)CCCN(C)C)cc2C1=O,5,1
O=C(C[C@H]1CC[C@H]2[C@@H](COC[C@H](O)CN2CCc2ccccc2)O1)NCc1ccccc1,8,8
COc1ccc(NC(=O)Nc2cccc3c2O[C@@H](CN(C)Cc2ccccc2)[C@H](C)CN([C@H](C)CO)C3=O)cc1,-10,-10
CNC(=O)C[C@H]1CC[C@@H]2[C@H](COc3ccc(NC(=O)c4ccc(F)cc4)cc3C(=O)N2C)O1,9,9

# Part of the list above in order of molar mass, lowest first:
SMILES,Vaccinia stage,Vaccinia stage Venus
O=C(C[C@H]1CC[C@H]2[C@@H](COC[C@H](O)CN2CCc2ccccc2)O1)NCc1ccccc1,8,8
CNC(=O)C[C@H]1CC[C@@H]2[C@H](COc3ccc(NC(=O)c4ccc(F)cc4)cc3C(=O)N2C)O1,9,9
Cc1ccccc1S(=O)(=O)N1CC[C@H]2[C@H](CO)Nc3ccc(-c4ccc(C#N)cc4)cc3[C@H]21,-18,-12
O=C(C[C@H]1CC[C@@H]2[C@H](COC[C@@H](O)CN2S(=O)(=O)c2cccc(Cl)c2)O1)N1CCOCC1,19,11
C[C@H](CO)N1C[C@H](C)[C@H](CN(C)CC2CCCCC2)Oc2ccc(NC(=O)CCCN(C)C)cc2C1=O,5,1
Cc1noc(C)c1NC(=O)Nc1cccc2c1O[C@H](CN(C)CC1CCCCC1)[C@H](C)CN([C@H](C)CO)C2=O,10,15
COc1ccc(NC(=O)Nc2cccc3c2O[C@@H](CN(C)Cc2ccccc2)[C@H](C)CN([C@H](C)CO)C3=O)cc1,-10,-10
O=C(C[C@@H]1CC[C@@H]2[C@H](COC[C@H](O)CN2S(=O)(=O)c2ccccc2)O1)NCc1ccc(-c2ccccc2)cc1,?,.
C[C@H](CO)N1C[C@H](C)[C@@H](CN(C)CC2CCCCC2)Oc2ccc(NC(=O)Nc3ccc4c(c3)OCO4)cc2C1=O,-13,-6
C[C@@H]1CN([C@@H](C)CO)C(=O)c2cc(NC(=O)Cn3cnnn3)ccc2O[C@H]1CN(C)S(=O)(=O)c1ccc(F)cc1,-8,10
Cc1noc(C)c1NC(=O)Nc1ccc2c(c1)CC(=O)N([C@@H](C)CO)C[C@@H](C)[C@@H](CN(C)Cc1ccc(C(F)(F)F)cc1)O2,-1,-1
CC(C)NC(=O)N(C)C[C@@H]1OCCCC[C@@H](C)Oc2ccc(NS(=O)(=O)c3ccc(F)cc3)cc2C(=O)N([C@@H](C)CO)C[C@H]1C,20,10
C[C@H](CO)N1C[C@H](C)[C@H](CN(C)C(=O)CCCN(C)C)OCCCC[C@H](C)Oc2ccc(NS(=O)(=O)c3cccs3)cc2C1=O,23,10
C[C@@H]1CCCCO[C@H](CN(C)Cc2ccc(C(F)(F)F)cc2)[C@H](C)CN([C@H](C)CO)C(=O)c2cc(NS(=O)(=O)c3ccccc3)ccc2O1,?,.

# Additional results follow.
SMILES,Vaccinia stage,Vaccinia stage Venus
COc1ccc(S(=O)(=O)N(C)C[C@H]2Oc3c(NC(=O)c4nc5ccccc5s4)cccc3C(=O)N([C@H](C)CO)C[C@@H]2C)cc1,1,-4
CC(C)CC#Cc1ccc2c(c1)O[C@@H](CN(C)Cc1ccc(F)cc1)[C@H](C)CN([C@H](C)CO)S2(=O)=O,-23,-29
CN(C)c1ccc2c(c1)[C@H]1C[C@H](CC(=O)N3CCCCC3)O[C@@H](CO)[C@H]1O2,11,22
C[C@@H]1CN([C@H](C)CO)S(=O)(=O)c2ccc(C#CC3CCCC3)cc2O[C@H]1CN(C)C(=O)Cc1ccncc1,?,.
COCC(=O)N1CCCCN2[C@H](C1)[C@H](c1ccc(C#Cc3ccc(OC)cc3)cc1)[C@@H]2CO,?,.
CN1[C@@H]2c3ccc(-c4ccncc4)c(=O)n3C[C@@H]2[C@@H](CO)[C@@H]1C(=O)N1CCc2ccccc2C1,-9,6
COc1ccc(NC(=O)Nc2ccc3c(c2)CC(=O)N([C@H](C)CO)C[C@H](C)[C@@H](CN(C)S(=O)(=O)c2ccc(OC)cc2)O3)cc1,-7,-9
CO[C@H]1CN(C)C(=O)c2cc(NC(=O)c3ccc4c(c3)OCO4)ccc2OC[C@H](C)N(CCC(F)(F)F)C[C@H]1C,-15,-6
C[C@H](CO)N1C[C@H](C)[C@@H](CN(C)S(=O)(=O)c2cccc(C#N)c2)OCc2cn(nn2)CCCC1=O,11,9
O=C(C[C@H]1CC[C@@H]2[C@H](COC[C@@H](O)CN2Cc2cccc(-c3ccncc3)c2)O1)N1CCN(c2ccccc2)CC1,-28,-11
CCC(=O)Nc1ccc2c(c1)C(=O)N(C)[C@@H]1CC[C@H](CC(=O)NC3CCCC3)O[C@H]1CO2,8,15
COCCNC(=O)C[C@@H]1C[C@H]2c3cc(NC(=O)c4ccc5c(c4)OCO5)ccc3O[C@H]2[C@@H](CO)O1,9,3
C/C=C/c1ccccc1[C@H]1[C@@H](CO)N(C(=O)CN2CCOCC2)[C@H]1C#N,20,4
COCC(=O)Nc1ccc2c(c1)[C@H]1C[C@@H](CC(=O)NCc3ccc(OC)cc3)O[C@H](CO)[C@H]1O2,9,4
COc1ccc(S(=O)(=O)N(C)C[C@@H]2Oc3c(NC(=O)C4CC4)cccc3C(=O)N([C@H](C)CO)C[C@H]2C)cc1,-2,6
COc1ccc(NC(=O)N(C)C[C@H]2Oc3ccc(NS(=O)(=O)c4c(C)noc4C)cc3CC(=O)N([C@@H](C)CO)C[C@@H]2C)cc1,12,6
CN(C)CC#Cc1ccc([C@@H]2[C@@H](CO)N3C(=O)CN(C(=O)c4ccccc4)C[C@@H]23)cc1,11,9
C[C@@H]1CCCCO[C@H](CN(C)Cc2ccncc2)[C@H](C)CN([C@H](C)CO)C(=O)c2cc(NS(=O)(=O)c3ccc(Cl)cc3)ccc2O1,?,.
COc1ccc(S(=O)(=O)Nc2ccc3c(c2)C(=O)N([C@H](C)CO)C[C@H](C)[C@@H](CN(C)C(=O)CCCN(C)C)OCCCC[C@H](C)O3)cc1,21,12
Cc1cc(C(=O)Nc2cccc3c2O[C@@H](CN(C)S(=O)(=O)c2ccc(Cl)cc2)[C@H](C)CN([C@@H](C)CO)C3=O)n(C)n1,14,9
CC(C)c1cn(CC[C@@H]2CC[C@@H](NC(=O)C3CC3)[C@@H](CO)O2)nn1,-1,1
C[C@H](CO)N1C[C@H](C)[C@H](CN(C)C(=O)Nc2ccccc2)Oc2ccc(NC(=O)c3ccncc3)cc2C1=O,18,12
O=C(Nc1cc(F)ccc1F)N1C[C@@H]2[C@H](c3ccccc31)[C@@H](CO)N2Cc1cccnc1,2,4
CC(C)NC(=O)Nc1ccc2c(c1)C(=O)N([C@@H](C)CO)C[C@H](C)[C@H](CN(C)C(=O)Nc1ccc3c(c1)OCO3)OCCCC[C@H](C)O2,27,16
COc1ccc(CN(C)C[C@H]2Oc3ccc(NC(=O)Cc4ccccc4)cc3CC(=O)N([C@H](C)CO)C[C@H]2C)cc1,7,7
C[C@@H]1CN([C@@H](C)CO)C(=O)c2ccccc2-c2ccccc2CO[C@@H]1CN(C)C(=O)Nc1ccc2c(c1)OCO2,0,3
C[C@H](CO)N1C[C@H](C)[C@H](CN(C)Cc2ccc(Cl)c(Cl)c2)Oc2ccc(NS(C)(=O)=O)cc2C1=O,-18,-13
C[C@@H]1CN([C@@H](C)CO)S(=O)(=O)c2ccc(C3=CCCCC3)cc2O[C@@H]1CN(C)C(=O)c1ccccc1,-24,-8
CNC[C@@H]1Oc2c(NC(=O)C3CC3)cccc2C(=O)N([C@H](C)CO)C[C@H]1C,1,17
C[C@@H]1CN([C@H](C)CO)C(=O)Cc2cc(NC(=O)NC3CCCCC3)ccc2O[C@@H]1CN(C)CC1CCCCC1,-25,-20

# Bioassay records as filed in PubChem BioAssay.
